YopH PTP inh = inhibitors of Yersinia enterocolitica YopH tyrosine phosphatase; AID 898; fluorescence Ex485/Em525; inhibition, %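 (about 10 µM by stock and volumes)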; 0.16% of 140,000 active;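 active = inhibition of 50% or more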;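 also: controls were vehicle for no effect and minimum signal wells for full effect; inactives centre near -20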
RecA intein inh = blocks M. tuberculosis RecA intein splicing; cell-free RecA intein splicing, fluorescence; inhibition, %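 (about 9 µM by stock and volumes)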; 0.75% of 290,000 active; in the data active = inhibition above about 30%; inconclusive = no clear call, values can overlap the other calls;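 also: 0% = vehicle wells and 100% = reference inhibitor control wells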
Target sequence (P9WHJ3 whole entry, looked up): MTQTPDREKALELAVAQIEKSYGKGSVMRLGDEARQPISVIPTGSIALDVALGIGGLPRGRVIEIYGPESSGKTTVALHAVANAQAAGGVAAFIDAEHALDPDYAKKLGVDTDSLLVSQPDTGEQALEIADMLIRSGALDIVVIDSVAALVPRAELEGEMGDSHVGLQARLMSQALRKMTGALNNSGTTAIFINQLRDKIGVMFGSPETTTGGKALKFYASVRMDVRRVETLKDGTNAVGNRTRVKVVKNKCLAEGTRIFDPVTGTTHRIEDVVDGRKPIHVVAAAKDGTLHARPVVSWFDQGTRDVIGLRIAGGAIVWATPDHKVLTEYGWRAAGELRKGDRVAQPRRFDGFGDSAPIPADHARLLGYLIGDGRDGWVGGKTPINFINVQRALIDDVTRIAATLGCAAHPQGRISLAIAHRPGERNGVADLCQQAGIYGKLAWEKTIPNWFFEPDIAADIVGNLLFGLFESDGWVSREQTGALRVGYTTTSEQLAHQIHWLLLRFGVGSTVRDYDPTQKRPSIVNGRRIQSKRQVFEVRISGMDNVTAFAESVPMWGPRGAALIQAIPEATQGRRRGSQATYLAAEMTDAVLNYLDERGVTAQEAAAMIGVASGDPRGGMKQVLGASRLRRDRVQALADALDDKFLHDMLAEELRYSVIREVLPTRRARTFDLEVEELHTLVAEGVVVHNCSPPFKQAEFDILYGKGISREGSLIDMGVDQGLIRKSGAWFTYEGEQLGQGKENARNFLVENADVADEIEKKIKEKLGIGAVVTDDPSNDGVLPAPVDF
Mtb growth = M. tuberculosis H37Rv growth inhibitors, H37Rv strain (AID 1626) | M. tuberculosis H37Rv growth inhibition; higher % means a stronger effect | inhibition, % at 10 µM; hits with a dose series show IC50 in µM | 0.95% of 220,000 active;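 active = confirmed in a dose series; inconclusive = inhibition above 80% but not taken into the dose series; inactive = below 80% or under 30% at every dose of the series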;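 also: bacteria incubated seven days before Alamar blue readout; 0% = bacteria only wells and 100% = bacteria with antibiotic wells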
Arbovirus anti = blocks arbovirus infection | arbovirus infection cell-based antiviral screen | inhibition, % at 10 µM | 0.37% of 200,000 active;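 active = inhibition from about 30%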;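 also: bluetongue infection of BSR cells; cell survival read as ATP light after 72 h; 0% = infected wells without compound and 100% = uninfected wells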
Mtb bLac sens = beta-lactam sensitization of Mtb H37Rv; M. tuberculosis H37Rv growth with meropenem, percent inhibition; hits of this screen are not shown here; 0.27% of 330,000 active; inhibition, % at 25 µM;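 active = about 74% or more and at least 40 points above the plate without the antibiotic, then above 30% in a dose series; inconclusive = first-round hits that could not be retested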;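 also: growth measured after seven days incubation then overnight dye step; 0% = bacteria only wells and 100% = bacteria with antibiotic; twin plates without the antibiotic show which effects depend on it; some results filed as inactive read as strong as hits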
Arbovirus anti repeat = second read-out of Arbovirus anti, no call of its own (marks repeat the call); inhibition, %; measured here: 10K subset replicate screen; many hits read low in the repeat;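 first of two repeat runs on a subset; 0% = infected and 100% = uninfected wells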
* hit, by the source's call; ? = inconclusive; · = no result given. This is a subset; count on the stated rates, not on these rows.

SMILES | YopH PTP inh | RecA intein inh | Mtb growth | Arbovirus anti | Mtb bLac sens | others
CCOc1ccc(N(CC(=O)Nc2c(C)n(C)n(-c3ccccc3)c2=O)S(=O)(=O)c2ccc(F)cc2)cc1 | · | -1.2 | · | · | -10
COc1ccc(CNC(=O)c2ccc(CS(=O)(=O)c3ccccc3C)o2)cc1 | · | -2.7 | · | · | -2
O=C(O)CC1(CC(=O)Nc2ccc3c(c2)C(=O)OC3)CCCCC1 | · | 1.2 | -8% | · | -1
COc1ccc(NC(=O)CSCC(=O)NCCc2ccccn2)cc1 | · | -5.1 | 2% | 22 | -1
CN(CC(=O)NC(=O)NCc1ccccc1)Cc1cccc(Cl)c1Cl | 6 | 3.5 | 8% | -18 | -1
O=S(=O)(NCc1cn2ccsc2n1)c1ccc(Oc2ccccc2)cc1 | -4 | -0.4 | -10% | 7 | -10
O=C(COC(=O)/C=C/c1ccc(F)cc1)Nc1ccc(Cl)cn1 | · | 0.0 | 7% | 1 | 30
NC(=O)[C@@H]1CCCNc2c(I)cc([N+](=O)[O-])cc2C(=O)N[C@@H](CO)C(=O)NCC(=O)N1 | -26 | · | -1% | 3 | 0
Cc1ccccc1NC(=O)NCc1ccc2c(c1)OCO2 | · | · | -8% | 7 | -2
Cc1nc(CN2CCN(C(=O)c3ccc(Br)cc3)CC2)cs1 | -11 | -1.0 | 5% | 7 | -13
Cc1ccc(S(=O)(=O)NNC2=NCCCCC2)cc1 | · | -2.0 | -4% | 4 | -13
OCCSc1nc(-c2cccnc2)nc2ccccc12 | -39 | 0.0 | 0% | -3 | 2
O=C(NC1CCNCC1)C1CC1 | · | 0.2 | -12% | 1 | -1
CC(=O)Oc1cccc(-c2nc3ccccc3c(=O)o2)c1 | · | 20 | 2% | -2 | 14
CCn1cc(C(=O)O)c(=O)c2cc(F)c(N3CCN(C(=S)NC(=O)c4ccccc4)CC3)cc21 | · | -4.6 | 31% | · | 54
Cc1ccc2c(c1)-c1c(cnn1CC(=O)O)CO2 | -62 | 1.8 | -7% | 4 | 29
C[C@H](NC(=O)C1CC(=O)N(c2ccc3c(c2)OCO3)C1)C(=O)NC1CCCC1 (stereo not given in full) | · | -7.9 | · | · | -2
CSc1ccc(/C=C(/NC(=O)c2ccccc2)C(=O)N2CCN(C)CC2)cc1 | · | 1.5 | 4% | 18 | 1
C/[N+]([O-])=C\c1ccc([N+](=O)[O-])o1 | · | -179 | 66% | -8 | 88
Cc1c(C(=O)Nc2c(C)n(C)n(-c3ccccc3)c2=O)oc2ccccc12 | -30 | -0.1 | -6% | 10 | -9
CCc1ccc(NC(=O)c2cccc(C(=O)Nc3ccc(CC)cc3)n2)cc1 | · | 1.7 | · | · | -4
Cc1ccc2[nH]c3c(c2c1)CCCC3=O | -83 | -1.1 | 75% | -1 | 6
COc1cccc(N2CCN(C(=O)c3cccc(NC4=NC5CS(=O)(=O)CC5S4)c3)CC2)c1 (stereo not given) | · | -1.3 | · | · | -1
CCOC(=O)CNc1ccc2c(c1)OCO2 | 5 | -3.6 | -6% | 2 | -3
CCOC(=O)c1cc(C#N)c(=S)[nH]c1C | · | -2.0 | 1% | 1 | 1
COc1cc(C(=S)N2CCOCC2)ccc1OC(=O)c1ccccc1 | · | -1.8 | · | · | 3
COc1ccc(C2CC(c3cccs3)=NN2C(=O)CSc2nc3c(cnn3-c3ccccc3)c(=O)[nH]2)cc1 (stereo not given) | -25 | -8.9 | 12% | -2 | 24
Cc1cc(OCC(=O)NCc2ccncc2)c2c3c(c(=O)oc2c1)CCCC3 | · | -0.5 | · | · | 14
Cc1cccc2c1NC(C)CC2C (stereo not given) | -12 | · | 0% | -2 | -5
CC1(C)CC(=O)C/C(=N\NC(=O)C2C3CCCCC32)C1 (stereo not given) | · | · | 1% | 0 | 0
O=C(Cn1cnc2ccccc21)c1ccc(Br)cc1 | · | 2.7 | 0% | 4 | 9
CCn1ncc(C(=O)Nc2ccc(F)cc2)c1C | · | -1.4 | · | · | 0
CCOc1cc(C(=S)N2CCCCC2)ccc1OS(=O)(=O)c1ccc(Cl)cc1 | -30 | 6.6 | -3% | -17 | 0
Cc1sc(NC(=O)c2cccc([N+](=O)[O-])c2)c(C(N)=O)c1-c1ccc(C(C)(C)C)cc1 | -24 | -4.6 | -9% | 3 | 6
CCCN1C(=O)c2cc(C(=O)Nc3ccccc3CC)ccc2C1O (stereo not given) | 0 | -0.1 | -7% | 3 | 11 | Arbovirus anti repeat=1
COC(=O)c1ccccc1NC(=O)Cn1cnc2c(cnn2-c2ccccc2)c1=O | -35 | -1.7 | 3% | -12 | -3
COc1ccccc1OCCn1cc(/C=C(\C#N)C(=O)NCc2cccs2)c2ccccc21 | -34 | -1.7 | 3% | -5 | 0
C/C(CC(=O)Nc1ccccn1)=N\NC(=O)c1ccc([N+](=O)[O-])cc1Cl | · | 1.0 | · | · | 5
N#CCCn1cc(/C=N/NC(N)=S)c(-c2ccc(Br)cc2)n1 | · | -0.6 | -4% | -1 | 0
CCN1C(=O)S/C(=C/c2ccsc2)C1=O | -14 | -0.9 | -3% | -3 | 5
Cc1ccc(-c2nc(C3CCN(S(=O)(=O)c4ccc(C(F)(F)F)cc4)CC3)no2)cc1 | -31 | 0.4 | -5% | -6 | 2
Cc1csc(NC(=O)Cc2ccccc2Cl)n1 | · | 2.5 | · | · | 6
COCc1nnc(NC(=O)c2ccc(Cl)cc2[N+](=O)[O-])s1 | -37 | 0.9 | -3% | 1 | -3
CCCn1c(SCC(=O)c2ccc(OC)c(OC)c2)nc2c1c(=O)n(C)c(=O)n2C | -19 | 0.0 | -6% | 7 | -4
CCOc1ccc(/C=C/C(O)=C2/C(=O)N(C)C3(C)CC2c2ccccc2O3)cc1OC (stereo not given) | · | -25 | 21% | -13 | 5
CCC1=NN(C(=O)c2ccc(C)cc2)C(O)(c2ccc(Br)cc2)C1 (stereo not given) | -14 | -0.9 | 10% | -18 | 7
CCc1ccccc1NC(=O)c1sc2nc(C)cc(C)c2c1N | · | -5.2 | · | · | 62
CC(=O)Oc1ccc(C(=O)Nc2cccc(C(=O)c3cccc(NC(=O)c4ccc(OC(C)=O)cc4)c3)c2)cc1 | -2 | 3.8 | 74% | -25 | 98

Arranged by formula weight (ascending): some entries from above
SMILES | YopH PTP inh | RecA intein inh | Mtb growth | Arbovirus anti | Mtb bLac sens | others
CCn1ncc(C(=O)Nc2ccc(F)cc2)c1C | · | -1.4 | · | · | 0
Cc1csc(NC(=O)Cc2ccccc2Cl)n1 | · | 2.5 | · | · | 6
CCc1ccccc1NC(=O)c1sc2nc(C)cc(C)c2c1N | · | -5.2 | · | · | 62
COCc1nnc(NC(=O)c2ccc(Cl)cc2[N+](=O)[O-])s1 | -37 | 0.9 | -3% | 1 | -3
CCCN1C(=O)c2cc(C(=O)Nc3ccccc3CC)ccc2C1O (stereo not given) | 0 | -0.1 | -7% | 3 | 11 | Arbovirus anti repeat=1
C/C(CC(=O)Nc1ccccn1)=N\NC(=O)c1ccc([N+](=O)[O-])cc1Cl | · | 1.0 | · | · | 5
N#CCCn1cc(/C=N/NC(N)=S)c(-c2ccc(Br)cc2)n1 | · | -0.6 | -4% | -1 | 0
CCC1=NN(C(=O)c2ccc(C)cc2)C(O)(c2ccc(Br)cc2)C1 (stereo not given) | -14 | -0.9 | 10% | -18 | 7
COC(=O)c1ccccc1NC(=O)Cn1cnc2c(cnn2-c2ccccc2)c1=O | -35 | -1.7 | 3% | -12 | -3
CCOc1ccc(/C=C/C(O)=C2/C(=O)N(C)C3(C)CC2c2ccccc2O3)cc1OC (stereo not given) | · | -25 | 21% | -13 | 5
Cc1sc(NC(=O)c2cccc([N+](=O)[O-])c2)c(C(N)=O)c1-c1ccc(C(C)(C)C)cc1 | -24 | -4.6 | -9% | 3 | 6
CCOc1cc(C(=S)N2CCCCC2)ccc1OS(=O)(=O)c1ccc(Cl)cc1 | -30 | 6.6 | -3% | -17 | 0
Cc1ccc(-c2nc(C3CCN(S(=O)(=O)c4ccc(C(F)(F)F)cc4)CC3)no2)cc1 | -31 | 0.4 | -5% | -6 | 2
CC(=O)Oc1ccc(C(=O)Nc2cccc(C(=O)c3cccc(NC(=O)c4ccc(OC(C)=O)cc4)c3)c2)cc1 | -2 | 3.8 | 74% | -25 | 98

Next part.
SMILES | YopH PTP inh | RecA intein inh | Mtb growth | Arbovirus anti | Mtb bLac sens | others
COC(=O)c1sccc1NC(=O)CSc1cccc(Cl)c1Cl | 3 | 6.2 | · | 25 | 8
Cc1ccc(NC(=O)Cc2noc3ccccc23)cc1 | -11 | · | 3% | -9 | -1
S=C(NCc1ccncc1)Nc1ccc(Br)cc1 | · | -4.0 | · | · | -1
CCN(CC)C(=O)c1ccc(NC(=O)C2=C(C)OCCS2)cc1 | · | 0.3 | · | · | 6
Cc1ccccc1CNS(=O)(=O)c1ccc2c(c1)OCCO2 | -15 | 4.0 | 5% | 7 | 1
CCOC(=O)N1CCN(C(=O)CSCC(=O)Nc2nc(-c3ccc(-c4ccccc4)cc3)cs2)CC1 | -32 | 0.9 | 3% | -21 | -4
O=C(CC1C(=O)NCCN1Cc1ccc(-c2ccccc2)cc1)NCc1ccncc1 (stereo not given) | · | 3.7 | -1% | 8 | 2
Cc1cc(NC(=O)CSc2nnc(-c3ccco3)n2CC2CCCO2)no1 (stereo not given) | -21 | 0.9 | -9% | 8 | 11
Cc1ccc(OCCN(C)C)c([N+](=O)[O-])c1 | -17 | 0.6 | 2% | 3 | -5
C/C(=N/NC(=O)CNC(=O)c1ccco1)c1ccco1 | · | -2.7 | · | · | -8
Cn1c(N2CCOCC2)nc(-c2ccccc2)c1-c1ccccc1 | -36 | 3.0 | 7% | -4 | 1
O=C(Cn1nc(Cl)nc1Cl)c1ccc2c(c1)OCCO2 | -42 | 5.4 | -2% | 7 | 54
CS(=O)(=O)N(CC(=O)Nc1ccccc1Sc1ccccc1)c1cccc(Br)c1 | -9 | 20 | 1% | -10 | -10
O=C(CSc1nc2nccnc2c(=O)n1Cc1cccs1)Nc1ccccc1F | · | 4.1 | · | · | -9
CN(C(=O)c1sc2nc(N3CCCC3)c3c(c2c1N)CC(C)(C)OC3)c1ccccc1 | · | 26 | · | · | ?
Cc1ccc(Cl)cc1NC(=S)N(Cc1ccccc1)Cc1cccnc1 | · | 4.5 | 10% | 7 | -7
CC1(C)Cc2cccc(C(=O)Nc3ccc(Cl)cc3)c2O1 | · | 9.2 | 13% | · | 98
O=C(O)CN1C(=O)C(=O)N(Cc2ccc(C(F)(F)F)cc2)C1=O | · | -4.2 | · | · | 1
O=C(NCc1nnc(SCC(=O)N2CCC(Cc3ccccc3)CC2)o1)c1ccccc1F | -22 | 1.9 | 6% | -8 | -1 | Arbovirus anti repeat=0
Cc1cc(OCC(O)CN2CCN(C)CC2)ccc1C(C)C (stereo not given) | -32 | -2.6 | -11% | -11 | 1
O=S(=O)(/N=C(/NNS(=O)(=O)c1ccccc1)c1ccccc1)c1ccccc1 | · | 1.7 | -10% | -5 | 8
O=C(Nc1cccc(-c2cn3ccccc3n2)c1)c1cccs1 | -15 | 3.3 | -4% | -5 | 77
Cc1ccc(CSCCNC(=O)CCSc2ccccc2)cc1 | -22 | -3.5 | 7% | 5 | -7
N#CC(C#N)=C/C=C(\Nc1ccc(Cl)cc1)c1ccc(Cl)cc1 | · | 0.0 | 6% | · | 6
O=C(/C=C/c1ccco1)NCCCN1CCN(CCCNC(=O)/C=C/c2ccco2)CC1 | -12 | 0.0 | 5% | 10 | -6
COCCn1cnc2c1c(=O)n(CC(=O)OCC#N)c(=O)n2Cc1ccccc1 | · | 3.8 | 1% | 23 | -6
C=CCSc1nnc(NC(=O)CSc2nc3ccccc3[nH]2)s1 | -33 | -1.8 | -2% | 9 | 20
O=C(c1ccc(Cl)c(S(=O)(=O)N2CCOCC2)c1)N1CCN(c2ccccc2)CC1 | · | -1.3 | · | · | -11
COc1ccc(/C(C)=N/NC(=O)CCC(=O)Nc2ccc(Cl)cc2Cl)c(OC)c1 | -6 | -0.2 | 4% | -23 | 0
C=CCNC(=O)COC(=O)c1cc(S(=O)(=O)N2CCCCC2)ccc1Cl | · | 0.8 | 0% | 13 | -7
Cc1cc(=O)[nH]c2ccc(S(=O)(=O)N3CCOCC3)cc12 | · | -1.6 | · | · | -5
CCCC1(c2ccccc2)NC(=O)N(CCN2C(=O)c3ccccc3C2=O)C1=O (stereo not given) | -17 | 0.0 | -3% | 9 | -8
CCOc1cccc(/C=N/NC(=O)CC2C(=O)NN=C2C)c1O (stereo not given) | · | -3.8 | 2% | -2 | -1
CN1CCN(c2ccc([N+](=O)[O-])c(Sc3nc4ccccc4[nH]3)c2)CC1 | -24 | -3.0 | · | -14 | ·
[O-]/C(=C(\C(=S)Nc1cccc2ccccc12)[n+]1cccc(CO)c1)c1ccc(Cl)s1 | · | · | -2% | -4 | ·
